Screens from PubChem.
Ecoli rRNA inh – reduced GFP signal of wild-type E. coli, primary screen, bacterial rRNA inhibitor project, GFP/RFP fluorescence, OD600, single point | E. coli WT GFP vs humanized-ribosome RFP mutants, 24 h; active compounds read low; DMSO median 0, no signal -100 | AID 720706, 2013 | GFP signal change (wild-type ribosome), % (concentration not given with the values) | 1.6% of 350,000 active;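 active means significant combined selectivity score with lowered wild-type GFP, culture density cut under 30%, mutant RFP and density less affected; inactive means any of these conditions unmet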; further: one replicate is shown; some compounds called inactive have numbers as strong as hits
MLL AF4-AF9 inh – inhibitors of AF4 peptide binding to AF9, primary screen, biochemical, AlphaScreen, biotin-AF4 peptide, FLAG-AF9, single point. Protein AF-9 (Homo sapiens), P42568. inhibition, % at 10 µM. 0.47% of 350,000 active. AID 651704, 2012;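 active means every replicate reaching a set inhibition limit, whatever the replicate mean, cut at about 25% in these data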;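 further: 0% = plate neutral control median and 100% = total signal loss; the record names both 10 and 1 µM as test concentration; the first replicate is given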
Target sequence (P42568 whole entry, looked up): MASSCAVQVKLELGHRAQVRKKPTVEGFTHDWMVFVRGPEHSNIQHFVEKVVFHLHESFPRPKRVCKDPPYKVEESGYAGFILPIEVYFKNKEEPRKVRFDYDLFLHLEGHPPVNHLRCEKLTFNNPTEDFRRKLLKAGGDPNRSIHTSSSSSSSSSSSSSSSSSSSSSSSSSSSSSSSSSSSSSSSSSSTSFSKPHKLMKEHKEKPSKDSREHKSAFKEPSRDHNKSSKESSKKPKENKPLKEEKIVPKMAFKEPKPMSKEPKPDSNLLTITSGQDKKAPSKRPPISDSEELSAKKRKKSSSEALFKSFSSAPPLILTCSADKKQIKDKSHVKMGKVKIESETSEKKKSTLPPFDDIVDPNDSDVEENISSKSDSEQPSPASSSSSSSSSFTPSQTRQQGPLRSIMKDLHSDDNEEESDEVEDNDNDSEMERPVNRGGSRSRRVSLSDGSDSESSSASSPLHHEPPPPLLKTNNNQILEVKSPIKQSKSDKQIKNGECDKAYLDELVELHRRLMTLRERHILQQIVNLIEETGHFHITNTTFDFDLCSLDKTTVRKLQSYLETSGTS
Ecoli rRNA inh OD600 – second read-out of Ecoli rRNA inh, no call of its own (marks repeat the call); OD600 change, %; measured here: OD600 growth;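 optical density of the mix in the first replicate; 0 = DMSO median and -100 = no signal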
Ecoli rRNA inh RFP – further read-out of Ecoli rRNA inh, marked with its call; RFP signal change, %; measured here: RFP humanized mutant strains;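 first replicate; 0 = DMSO median and -100 = no signal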
* marks the source's active call; other numbers are inactive results; & = joins results of further samples.

SMILES | Ecoli rRNA inh | Ecoli rRNA inh OD600 | Ecoli rRNA inh RFP | MLL AF4-AF9 inh
CC(C)NC(=O)N[C@H]1C=C[C@@H](CC(=O)N2CCCCC2)O[C@@H]1CO | 3 | 9 | -0.5 | -0.3
C[C@@H]1CN([C@H](C)CO)S(=O)(=O)c2ccc(C#CC3CCCCC3)cc2O[C@H]1CN(C)Cc1cccnc1 | 0 | -3 | -0.1 | 10
CCC(=O)Nc1ccc2c(c1)C(=O)N(C)[C@@H]1CC[C@@H](CC(=O)NCCN3CCCCC3)O[C@H]1CO2 | 4 | 7 | 1.2 | 0.6
Cc1noc(C)c1NC(=O)Nc1ccc2c(c1)CC(=O)N([C@@H](C)CO)C[C@H](C)[C@@H](CN(C)S(=O)(=O)c1ccccc1)O2 | 2 | 4 | 1.8 | -20
COc1ccccc1-c1ccc2c(c1)O[C@@H](CN(C)C(=O)Nc1ccccc1)[C@H](C)CN([C@H](C)CO)S2(=O)=O | -3 | -16 | 3.2 | -2.7
C[C@@H]1CN([C@H](C)CO)C(=O)c2cc(NC(=O)CCC(F)(F)F)ccc2O[C@@H]1CN(C)S(=O)(=O)c1ccccc1 | 0 | 0 | 0.4 | -2.7
COc1ccc(NC(=O)Nc2ccc3c(c2)C(=O)N([C@@H](C)CO)C[C@H](C)[C@@H](CN(C)C(=O)CCCN(C)C)OCCCC[C@H](C)O3)cc1 | 0 | 8 | -0.4 | 12
Cc1ccc(S(=O)(=O)N(C)C[C@@H]2OCCCC[C@@H](C)Oc3ccc(NC(=O)NC4CCCCC4)cc3C(=O)N([C@@H](C)CO)C[C@@H]2C)cc1 | 3 | 6 | -3.1 | -4.5
C[C@@H]1CN([C@H](C)CO)C(=O)c2cc(NC(=O)Cc3ccccc3)ccc2O[C@@H](C)CCCCO[C@@H]1CN(C)C(=O)Cc1ccccc1 | 0 | -7 | 1.0 | 1.1
CN1CCN(C(=O)C[C@@H]2CC[C@@H](NC(=O)c3ccc4c(c3)OCO4)[C@@H](CO)O2)CC1 | 1 | 2 | 0.4 | -0.7
CN(C)CC(=O)N[C@H]1CC[C@H](CCNC(=O)C2CC2)O[C@H]1CO | 1 | 4 | -1.8 | -1.6
C[C@H]1CN([C@@H](C)CO)S(=O)(=O)c2ccc(C#Cc3cccc(F)c3)cc2O[C@@H]1CN(C)C | -56 | -79 | -22 | 22
Cc1ccc(S(=O)(=O)N2CCC(C(=O)Nc3ccc(S(=O)(=O)N4CCOCC4)cc3)CC2)cc1 | 0 | -8 | -4.4 | -4.2
COc1ccc(C(O)c2ncc(-c3ccccc3Cl)[nH]2)cc1 (configuration not stated) | -8 | -12 | 3.1 | 4.4
CCCNC(=O)c1cc2c(c(-c3cccc(-c4ccc(F)cc4)c3)n1)[C@@H](CCO)N(S(=O)C(C)(C)C)C2 (some centres not stated) | -11 | -16 | 20 | 3.6
CCOC(=O)[C@]12CCC=C1N(Cc1cccc3ccccc13)C(=O)[C@H](CC(=O)NCc1ccc(C)o1)C2 | -12 | -11 | 6.8 | 1.9
COc1ccc(CCN2C(=O)c3ccccc3C2c2nnnn2-c2c(C)cccc2C)cc1OC (configuration not stated) | -14 | -10 | 4.1 | 1.2
C[C@@H]1CN([C@@H](C)CO)C(=O)Cc2cc(NC(=O)C3CC3)ccc2O[C@H]1CN(C)Cc1ccc(C(=O)O)cc1 | 5 | 2 | -1.0 | -2.7
C[C@@H]1CN([C@@H](C)CO)C(=O)c2cc(Br)cnc2O[C@@H]1CN(C)S(=O)(=O)c1ccccc1 | -1 | -6 | -1.5 | -11
C[C@@H]1CN([C@H](C)CO)C(=O)c2c(c3ccccc3n2C)-c2ccccc2CO[C@@H]1CN(C)C(=O)Nc1ccccc1 | 5 | 10 | 3.1 | 0.9
CC(C)NC(=O)N(C)C[C@@H]1Oc2ccc(NC(=O)Nc3cccc4ccccc34)cc2C(=O)N([C@@H](C)CO)C[C@H]1C | 1 | 0 | -0.8 | 0.6
CC(C)c1ccc(S(=O)(=O)c2ccc(NN)cc2)cc1 | -12 | -1 | -1.1 | 0.7
CN(C)C(=O)c1ccc(-c2ccc([C@H]3[C@H]4CN(CCC(F)(F)F)CCCCN4[C@H]3CO)cc2)cc1 | 1 | 3 | -2.5 | -0.8
C[C@H](CO)N1C[C@H](C)[C@H](CN(C)Cc2ccncc2)Oc2ccc(NS(C)(=O)=O)cc2CC1=O | -2 | 1 | 0.5 | -2.4
O=C(O)C[C@@H]1C[C@H]2c3cc(NC(=O)Nc4ccccc4F)ccc3O[C@H]2[C@@H](CO)O1 | 4 | 12 | -2.9 | -3.0
COC(=O)C[C@H]1CC[C@@H]2[C@H](COc3ccc(NC(=O)c4cscn4)cc3C(=O)N2C)O1 | -4 | -12 | -0.5 | -2.4
CC(=O)N1CCC(C(=O)N2c3ccccc3N=C(c3ccc4c(c3)OCO4)C2C(=O)NCc2ccccc2)CC1 (configuration not stated) | -1 | 7 | -5.1 | 2.8
CN(C[C@@H]1[C@H](c2ccccc2)[C@@H](CO)N1Cc1ccccn1)S(C)(=O)=O | 0 | 1 | -2.1 | -0.9
O=C1CN(Cc2ccc(F)cc2)C[C@H]2[C@@H](c3ccc(Br)cc3)[C@H](CO)N12 | -5 | -2 | -4.3 | -6.1
C[C@@H]1CCCCO[C@@H](CN(C)C(=O)Nc2ccc(C(F)(F)F)cc2)[C@@H](C)CN([C@@H](C)CO)C(=O)c2cc(NC(=O)C3CCCCC3)ccc2O1 | 4 | 5 | 2.1 | -2.3
C[C@H]1CCCCO[C@@H](CN(C)C(=O)Nc2ccc3c(c2)OCO3)[C@@H](C)CN([C@@H](C)CO)C(=O)c2cc(NC(=O)C3CCCCC3)ccc2O1 | 3 | 8 | 3.8 | 3.2
O=C(Nc1ccc2c(c1)[C@H]1C[C@@H](CC(=O)N3CCc4ccccc4C3)O[C@H](CO)[C@H]1O2)C1CCC1 | -7 | -12 | -1.9 | 1.5
OC[C@H]1[C@@H](c2ccc(-c3ccccc3)cc2)[C@@H]2CN(Cc3cncnc3)CCCCN12 | 4 | 0 | 0.1 | 14
C[C@H]1CN([C@@H](C)CO)C(=O)c2cc(NC(=O)Cn3cnnn3)ccc2O[C@@H]1CN(C)S(C)(=O)=O | 1 | 2 | 0.8 | -0.5
CC1=C(C(=O)N2CCOCC2)CC(CC(=O)NCc2cccs2)C(=O)N1CCC1=CCCCC1 (configuration not stated) | 0 | 2 | -1.4 | -2.1
C[C@H](CO)N1C[C@H](C)[C@H](CN(C)C(=O)Nc2ccc(C(F)(F)F)cc2)Oc2ccc(NS(=O)(=O)c3cn(C)cn3)cc2C1=O | -2 | -8 | -2.4 | -0.6
CCCNC(=O)[C@@H]1[C@@H](CO)[C@@H]2Cn3c(ccc(-c4ccccc4F)c3=O)[C@@H]2N1CCC | -1 | 1 | 1.5 | -1.9
C[C@H](CO)N1C[C@H](C)[C@H](CN(C)Cc2ccncc2)Oc2ccc(NC(=O)c3ccncc3)cc2C1=O | 3 | 6 | -1.1 | -5.5
COc1ccc(S(=O)(=O)Nc2ccc3c(c2)C(=O)N([C@@H](C)CO)C[C@@H](C)[C@@H](CN(C)C(=O)NC2CCCCC2)OCCCC[C@H](C)O3)cc1 | -3 | -11 | -2.2 | 1.4
CO[C@@H]1CC[C@@H]2CCN(C)C(=O)[C@H](C)[C@H](OC)CN(C)C(=O)c3cc(C#N)ccc3OC[C@@H]1O2 | 6 | 2 | 1.1 | -2.0
O=C(C1CCOCC1)N1CC[C@@H]2[C@@H](CO)Nc3ccc(Br)cc3[C@@H]21 | 4 | 6 | -3.5 | -1.3
Cc1ccc(S(=O)(=O)N(C)C[C@H]2Oc3c(NC(=O)NC4CCCCC4)cccc3C(=O)N([C@@H](C)CO)C[C@H]2C)cc1 | -3 | -15 | -2.0 | 0.4
O=C(C[C@H]1CC[C@H]2NC[C@@H](O)COC[C@@H]2O1)Nc1ccccc1 | 1 | 13 | -4.2 | -1.5
COc1ccccc1-c1ccc(C2[C@@H]3CN(S(=O)(=O)c4ccccc4OC)C[C@H]2N3)cc1 (some centres not stated) | -4&-6 | -37&-9 | -4.5&4.2 | 0.6&2.6
C[C@@H]1CN([C@@H](C)CO)S(=O)(=O)c2ccc(C#Cc3ccc(F)cc3)cc2O[C@H]1CN(C)S(=O)(=O)c1cn(C)cn1 | -1 | -12 | 4.2 | 3.1
COc1ccc(NC(=O)Nc2ccc3c(c2)C(=O)N([C@@H](C)CO)C[C@@H](C)[C@@H](CN(C)C(=O)NC(C)C)OCCCC[C@@H](C)O3)cc1 | 0 | -9 | -0.6 | 3.9
O=C(C1CCC1)N1[C@@H](CO)[C@@H](c2ccccc2)C12CN(Cc1cccc(Cl)c1)C2 | -10 | -52 | 23 | 1.7
C=CCCC1CN(Cc2ccc(OC)cc2)S(=O)(=O)c2c(cccc2N2CCCC2)O1 (configuration not stated) | 9 | 14 | 3.9 | -2.3
CC(=O)N(C)C[C@@H]1Oc2cc(C#CC(C)C)ccc2S(=O)(=O)N([C@@H](C)CO)C[C@H]1C | 0 | 6 | -2.7 | -15
CN1C[C@H]2[C@@H](c3ccccc31)[C@@H](CO)N2C(=O)CN1CCOCC1 | 3 | 13 | -0.7 | -2.6
CN(C)C(=O)c1ccc(-c2ccc([C@@H]3[C@H]4CN(C(=O)C5CCCC5)CC(=O)N4[C@H]3CO)cc2)cc1 | 0 | 9 | -4.0 | -7.9
COc1ccc(CNC(=O)C[C@H]2CC[C@@H](NC(=O)c3ccc4c(c3)OCO4)[C@@H](CO)O2)cc1 | 0 | -5 | 3.8 | -0.7
CN(C)C(=O)c1cccc(-c2ccc3c(c2)[C@H]2[C@H](CCN2C(=O)C2CCCC2)[C@H](CO)N3)c1 | -2 | 3 | 0.5 | 3.8
CC(c1nc2ccccc2n1Cc1ccccc1)n1c(-c2cnccn2)nc2ccccc21 (configuration not stated) | -36 | -57 | -3.5 | 2.7
C[C@@H]1CN([C@@H](C)CO)C(=O)Cc2cc(NC(=O)Cc3ccccc3)ccc2O[C@H]1CN(C)C(=O)Nc1ccccc1 | 6 | 5 | 1.0 | -1.4
O=C(CN1CCOCC1)NCC[C@H]1CC[C@H](NC(=O)Cc2ccccn2)[C@@H](CO)O1 | 1 | 6 | -1.0 | -1.3
C[C@@H]1CCCCO[C@H](CN(C)C(=O)c2ccccc2)[C@H](C)CN([C@@H](C)CO)C(=O)c2cc(NC(=O)CCCCCC(=O)Nc3ccccc3N)ccc2O1 | -4 | -1 | 3.6 | 4.3
C[C@@H]1CN([C@@H](C)CO)C(=O)Cc2cc(N(C)C)ccc2O[C@H]1CN(C)Cc1ccc2c(c1)OCO2 | -3 | 2 | -1.4 | 21
CCC(=O)N1C[C@H]2[C@@H](c3ccccc31)[C@@H](CO)N2Cc1ccc(F)cc1 | -1 | 0 | 0.4 | -1.5
COc1ccc(NC2CCCN(C(=O)c3ccccc3-c3ncc[nH]3)C2)cc1 (configuration not stated) | 9 | 15 | 2.9 | 3.7
COc1ccc(S(=O)(=O)Nc2cccc3c2O[C@@H](CN(C)Cc2ccc(-c4ccccc4)cc2)[C@@H](C)CN([C@@H](C)CO)C3=O)cc1 | 2 | 2 | -0.7 | -1.5

As a short view, some entries already given:
SMILES | Ecoli rRNA inh | Ecoli rRNA inh OD600 | Ecoli rRNA inh RFP | MLL AF4-AF9 inh
CN(C)C(=O)c1ccc(-c2ccc([C@@H]3[C@H]4CN(C(=O)C5CCCC5)CC(=O)N4[C@H]3CO)cc2)cc1 | 0 | 9 | -4.0 | -7.9
COc1ccc(CNC(=O)C[C@H]2CC[C@@H](NC(=O)c3ccc4c(c3)OCO4)[C@@H](CO)O2)cc1 | 0 | -5 | 3.8 | -0.7
CN(C)C(=O)c1cccc(-c2ccc3c(c2)[C@H]2[C@H](CCN2C(=O)C2CCCC2)[C@H](CO)N3)c1 | -2 | 3 | 0.5 | 3.8
CC(c1nc2ccccc2n1Cc1ccccc1)n1c(-c2cnccn2)nc2ccccc21 (configuration not stated) | -36 | -57 | -3.5 | 2.7
C[C@@H]1CN([C@@H](C)CO)C(=O)Cc2cc(NC(=O)Cc3ccccc3)ccc2O[C@H]1CN(C)C(=O)Nc1ccccc1 | 6 | 5 | 1.0 | -1.4
O=C(CN1CCOCC1)NCC[C@H]1CC[C@H](NC(=O)Cc2ccccn2)[C@@H](CO)O1 | 1 | 6 | -1.0 | -1.3
C[C@@H]1CCCCO[C@H](CN(C)C(=O)c2ccccc2)[C@H](C)CN([C@@H](C)CO)C(=O)c2cc(NC(=O)CCCCCC(=O)Nc3ccccc3N)ccc2O1 | -4 | -1 | 3.6 | 4.3
C[C@@H]1CN([C@@H](C)CO)C(=O)Cc2cc(N(C)C)ccc2O[C@H]1CN(C)Cc1ccc2c(c1)OCO2 | -3 | 2 | -1.4 | 21
CCC(=O)N1C[C@H]2[C@@H](c3ccccc31)[C@@H](CO)N2Cc1ccc(F)cc1 | -1 | 0 | 0.4 | -1.5
COc1ccc(NC2CCCN(C(=O)c3ccccc3-c3ncc[nH]3)C2)cc1 (configuration not stated) | 9 | 15 | 2.9 | 3.7
COc1ccc(S(=O)(=O)Nc2cccc3c2O[C@@H](CN(C)Cc2ccc(-c4ccccc4)cc2)[C@@H](C)CN([C@@H](C)CO)C3=O)cc1 | 2 | 2 | -0.7 | -1.5

The list is partial; the hit share may differ from the screen's.
